Source: PubChem (National Center for Advancing Translational Sciences (NCATS))
Cruzain inh noDet = cruzain (T. cruzi) inhibition without detergent. P25779. purified cruzain, Z-FR-AMC fluorescence, no detergent. Potency, µM, without a hit: max response, negative = inhibition, most hits filed as inhibitors. 200,000 tested, 2.3% active; active = well fitted curve in the direction sought with a large enough effect; inconclusive = small, poorly fitted or top-dose-only effect, or another doubt; inactive = no such curve, though single readings can be large; an effect the other way counts as inactive or inconclusive;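 also: plate controls were enzyme without inhibitor for no effect and buffer without enzyme for full effect; nearly all actives have a fitted effect of over 40% in size; top concentration of the series not given in the record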
Target sequence (P25779 123-467 limits assumed): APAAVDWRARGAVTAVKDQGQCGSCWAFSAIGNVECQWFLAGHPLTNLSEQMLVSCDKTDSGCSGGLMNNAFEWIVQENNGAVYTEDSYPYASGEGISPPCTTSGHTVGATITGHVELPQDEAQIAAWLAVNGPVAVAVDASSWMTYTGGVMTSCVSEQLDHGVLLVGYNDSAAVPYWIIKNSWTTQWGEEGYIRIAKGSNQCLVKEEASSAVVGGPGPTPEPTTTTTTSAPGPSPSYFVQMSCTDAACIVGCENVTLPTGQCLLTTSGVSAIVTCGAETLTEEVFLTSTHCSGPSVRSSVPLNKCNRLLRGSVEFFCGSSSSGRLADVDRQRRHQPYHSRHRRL
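Purified cruzain at 1.5 nM, pre-incubated 15 min with compound at room temperature in 100 mM sodium acetate pH 5.5, 5 mM DTT, 0.00005% Triton X-100. Reaction started with 2 uM Z-FR-AMC; AMC fluorescence increase over 60 s gives rate.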
Lassa entry inh = blocks Lassa virus binding to or entry into cells; Lassa virus pseudotype entry inhibition, cell reporter; control for the full effect not named in the record; Potency, µM (titrated, usually from 37.9 µM), for inactives: at the highest dose activity change, negative = inhibition, usual class: inhibitors; 300,000 tested, 1.2% active; active means well fitted inhibition curve with a large enough effect; inconclusive means small, poorly fitted or top-dose-only effect, or effect the other way; inactive means flat fitted curve, though single readings scatter; tested in HEK293 cells; also: % is scaled to controls: 0 for no effect and ±100 for the full control effect; nearly all actives have a fitted effect of over 50% in size; luciferase read-out
Marburg entry inh = Marburg virus entry inhibition; Marburg virus pseudotyped entry inhibition, cell reporter; control for the full effect not named in the record; about a third of the inactives were read at about 46 µM; Potency, µM (doses to about 37.8 µM), without a hit: at the highest dose activity change, negative = inhibition, usual class: inhibitors; 300,000 tested, 1.8% active; active = well fitted inhibition curve with a large enough effect; inconclusive = small, poorly fitted or top-dose-only effect, or effect the other way; inactive = flat fitted curve, though single readings scatter; tested in HEK293 cells; about a fifth of its hits are not listed in these tables; also: % is scaled to controls: 0 for no effect and ±100 for the full control effect; luciferase read-out
NS1 inh = influenza NS1 inhibition; 270,000 tested, 0.4% active; Potency, µM (highest dose often 46.1 µM), without a hit: at the top dose activity, positive = more growth; S. cerevisiae slowed by influenza A NS1, growth recovery by OD600; AID 2326; also: actives are rising curves; nearly all actives have a fitted effect of over 50% in size
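Read-out: OD600 growth recovery of NS1-expressing budding yeast. Cells grown overnight at 30C in -URA glucose medium, washed, resuspended and diluted 1:100 in 2% galactose assay medium, pH 6.0. Same strain lacking NS1 served as positive control.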
SARS PLpro yeast = SARS-CoV PLP inhibition in yeast; S. cerevisiae expressing SARS-CoV PLpro, growth rescue; control for the full effect not named in the record; 330,000 tested, 0.19% active; Potency, µM (top dose mostly 32.9 µM), for the others: top-dose activity, positive = growth rescue; also: 0% is about no effect; nearly all actives have a fitted effect of over 55% in size; growth read by luminescence after 48 h
2A StopGo = lowers the luciferase signal of an FMDV 2A StopGo reporter. human cells with a luciferase reporter of 2A StopGo recoding; control for the full effect not named in the record. Potency, µM (titrated, usually from 57.9 µM), without a hit: at the highest dose signal change, negative = less light. 410,000 tested, 1.2% active. AID 1159524; active = well fitted falling curve with a large enough effect; inconclusive = small, poorly fitted or top-dose-only effect; inactive = no such curve, though single readings can be large or run the other way; tested in HEK293T cells; also: % is scaled to controls: 0 for no effect and ±100 for the full control effect; nearly all actives have a fitted effect of over 45% in size; luciferase light after 4 h
RE007 growth inh = less growth of the S. pombe RE007 Vpr strain | AID 651644 | 360,000 tested, 0.21% active | Potency, µM (top dose mostly 92.2 µM), without a hit: at the highest dose activity change, negative = less growth | S. pombe RE007 Vpr strain, BacTiter-Glo ATP luminescence, 24 h; control for the full effect not named in the record; active = well fitted falling curve with a large enough effect; inconclusive = small, poorly fitted or top-dose-only effect; inactive = no such curve, though single readings can be large or run the other way;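 also: % is scaled to controls: 0 for no effect and ±100 for the full control effect; nearly all actives have a fitted effect of over 50% in size; the assay follows cell death caused by Vpr and the record does not say whether a fall means rescue or toxicity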
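Fission yeast strain RE007, carrying one chromosomally integrated HIV-1 vpr copy, was seeded at OD 0.01 in PMG+AL medium with 23 nL pinned compound. After 24 h at 30 °C and 99% humidity, viability was read by BacTiter-Glo luminescence.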
Cruzain inh Det = blocks cruzain activity in presence of Triton detergent | P25779 | purified cruzain, Z-FR-AMC fluorescence, 0.01% Triton | Potency, µM, for the others: max response, negative = inhibition, most hits filed as inhibitors | 200,000 tested, 0.43% active; active = well fitted curve in the direction sought with a large enough effect; inconclusive = small, poorly fitted or top-dose-only effect, or another doubt; inactive = no such curve, though single readings can be large; an effect the other way counts as inactive or inconclusive;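 also: plate controls were neutral wells for no effect and buffer without enzyme for full effect; nearly all actives have a fitted effect of over 40% in size; top concentration of the series not given in the record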
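Sodium acetate buffer (100 mM, pH 5.5) containing 5 mM DTT and 0.01% Triton X-100 hosted 1.5 nM cruzain and test compound for 15 min at room temperature. Cleavage of 2 uM Z-FR-AMC was then tracked by fluorescence.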
Active calls of the source: *; ? = inconclusive; / = no result given; & = joins results of further samples; [ ] = remark or other dose. Unless noted, calls follow the shape of the dose curve; as a rule, active means well fitted rising curve with a large enough effect; inconclusive means small, poorly fitted or top-dose-only effect; inactive means no such curve, though single readings can be large or run the other way. Potency is read from the fitted curve at half-maximal effect.

SMILES | Cruzain inh noDet | Lassa entry inh | Marburg entry inh | NS1 inh | SARS PLpro yeast | 2A StopGo | RE007 growth inh | Cruzain inh Det
COc1ccc(NC(=O)C/C(C)=N/NC(=O)CCc2ccccc2)c(OC)c1 | / | / | -29%[46.1 µM] | 5% | -2% | -21% | 4% | /
CCc1cccc(NC(=O)Nc2cccs2)c1 | -12% | -13% | ? | -43% | -4% | 63%[activator] | -9% | -11%
COc1ccccc1NC(=O)C(C)NS(=O)(=O)c1ccccc1 (stereo not given) | ? | 10% | -3% | -2% | 7% | 3% | 15% | 2.3%
CSc1nc2c(c(=O)[nH]1)C(c1cccc(Br)c1)CC(=O)N2 (stereo not given) | / | 13% | 5%[46.1 µM] | / | 3% | -4% | -8% | /
Cn1c(=O)n(C)c2cc(S(=O)(=O)Nc3ccccc3O)ccc21 | -1% | -10% | 4% | -3% | -6% | -1% | 1% | 0.7%
COc1ccc(C(=O)CC2C(=O)N(C)C(=O)N(C)C2=O)cc1 | -4% | -14% | 35%&35% | -5% | 3% | -3% | 1% | -6.1%
O=C(c1cccnc1)N1CCC(c2nc3ccccc3[nH]2)CC1 | -1% | / | -5% | -13% | -5% | / | / | 1.6%
COC(C[C@H](O)C[C@H](O)COCc1ccccc1)OC | / | / | / | 1% | -1% | -23% | -9% | /
CC(=O)N1c2ccc(S(=O)(=O)NCCC(=O)Nc3ccc(C)c(F)c3)cc2CC1C (stereo not given) | / | -11%[46.1 µM] | ? | -1% | -5% | 3% | 5% | /
COc1cc(NC(=O)CSc2c3c(nc4ccccc24)CCC3)cc(OC)c1OC | -8%&0% | ? | ? | 2% | -7% | ? | -5% | -4.8%&-2.2%

Not a retest: an excerpt of the list.
SMILES | Cruzain inh noDet | Lassa entry inh | Marburg entry inh | NS1 inh | SARS PLpro yeast | 2A StopGo | RE007 growth inh | Cruzain inh Det
O=C(c1cccnc1)N1CCC(c2nc3ccccc3[nH]2)CC1 | -1% | / | -5% | -13% | -5% | / | / | 1.6%
COC(C[C@H](O)C[C@H](O)COCc1ccccc1)OC | / | / | / | 1% | -1% | -23% | -9% | /
CC(=O)N1c2ccc(S(=O)(=O)NCCC(=O)Nc3ccc(C)c(F)c3)cc2CC1C (stereo not given) | / | -11%[46.1 µM] | ? | -1% | -5% | 3% | 5% | /
COc1cc(NC(=O)CSc2c3c(nc4ccccc24)CCC3)cc(OC)c1OC | -8%&0% | ? | ? | 2% | -7% | ? | -5% | -4.8%&-2.2%

Continuation.
SMILES | Cruzain inh noDet | Lassa entry inh | Marburg entry inh | NS1 inh | SARS PLpro yeast | 2A StopGo | RE007 growth inh | Cruzain inh Det
C=CCNC(=O)C1CC(c2cccc(OC)c2)=NO1 (stereo not given) | 6% | 30%[14.3 µM] | 10% | 4% | 0% | 18% | -11% | 1.1%
COc1ccc(N2CSC3=C(C#N)C(c4ccc(OC)c(OC)c4)CC(=O)N3C2)c(OC)c1 (stereo not given) | -15% | / | / | 0% | 9% | -1% | -5% | -12%
CCOC(=O)c1ccc(NC(=S)NCCc2ccccc2F)cc1 | / | -15% | -5%[46.1 µM] | -36% | -4% | 24% | -8% | /
COc1ccc2sc(C)nc2c1NC(C)=O | -5% | 2% | -2%[46.1 µM] | 9% | 5% | -14% | -3% | 0.8%
O=C(COC(=O)/C=C/c1ccc(OC(F)F)cc1)Nc1ccc(N2CCOCC2)cc1 | / | -1% | ? | / | -5% | 1% | 3% | /
Nc1nnc(SCC(=O)OCC(=O)Nc2ccccc2)s1 | / | / | / | 0% | 2% | 7% | 13% | /
C=CCN1C=C2C(=O)C(C)(OC(=O)C3CCCC3)C(=O)C=C2C=C1c1ccsc1 (stereo not given) | / | / | 21%&21%[14.2 µM] | 10% | 2% | 2% | -2% | /
CCN1CCCC1CNC(=O)C(=O)NC(C)c1ccccc1 (stereo not given) | / | 1%[46.1 µM] | -9%[46.1 µM] | 1% | 0% | -12% | 2% | /
Cc1cccc(NC(=O)Cn2nc(-c3ccccc3)c3cnc4ccccc4c32)c1 | -10% | -11%[46.1 µM] | / | / | / | -10% | / | -1.9%
Fc1cccc(F)c1-n1c(CN2CCCCC2)csc1=S | / | -13%[46.1 µM] | 6.3µM* | / | -4% | -25% | 15% | /
Cn1ccsc1=NC(=O)c1cc(S(=O)(=O)N2CCOCC2)ccc1F | / | -3% | 11% | / | -4% | -6% | 3% | /
COc1ccc(NC(=O)c2ccc3c(=O)n(-c4ccc(OC)cc4OC)c(=S)[nH]c3c2)cc1 | / | ? | / | / | -1% | ? | -8% | /
N#C/C(=C/c1ccc(Br)s1)C(=O)NCCc1c[nH]c2ccccc12 | ? | ? | ? | 1% | 10% | -24% | -2% | -8.9%
O=C(Nc1ccccc1)N(C1=NCCCCS1)c1ccccc1 | 1% | 14% | -7% | -18% | -1% | 9% | -15% | 0.4%
CC(=O)/C(C[N+]1(C)CCCCC1)=N\O | 8% | 9% | 11% | 1% | 4% | 9% | 8% | -3.3%
COC(=O)Cc1[nH]c(=S)[nH]c1C(=O)OC | / | 4% | 0%[46.1 µM] | 6% | 0% | -13% | 22% | /
COC(=O)c1cc(C(=O)N2CCN(c3cccc(Cl)c3)CC2)cc([N+](=O)[O-])c1 | / | / | ? | / | 0% | -24% | 6% | /
Cc1nn(Cc2ccccc2Cl)c(C)c1C(=O)OCC(=O)NC1CCCC(C)C1C (stereo not given) | 6% | ? | -15% | 1% | 15% | -18% | -12% | -0.1%
COCCN1Cc2cccc(C(=O)Nc3c(C)cc(C)cc3C)c2C1=O | 8% | 0% | -15% | -40% | -2% | 13% | 34% | -4.6%
COc1ccc(-c2nnc(Sc3nc4ccccc4o3)c3ccccc23)cc1 | -4% | -6% | ? | ? | 1% | / | 6% | 4.6%
Cc1cc(C)cc(-n2c(SCC(=O)NCc3ccco3)nc3ccccc3c2=O)c1 | ? | 7% | -10% | 2% | 0% | 11% | 13% | 0.4%
O=C(COC(=O)CCC1CCCC1)Nc1ccccc1OC(F)F | / | 20% | -1%[46.1 µM] | / | -9% | ? | -10% | /
NC(=O)c1ccc(N2CCN(c3ncc(C(F)(F)F)cc3Cl)CC2)cc1 | / | / | -4% | -7% | 0% | 10% | 9% | /
CN(C)S(=O)(=O)c1ccc2c(c1)C(CC(=O)O)NC2=O (stereo not given) | 1% | -5% | -2% | -2% | 4% | 2% | 21% | 3.1%
Cc1ccc(CCC(=O)Nc2ccc([N+](=O)[O-])cc2)o1 | / | -17%[46.1 µM] | -6%[46.1 µM] | -16% | -12% | 8% | 3% | /
O=C(C1CC(=O)N(c2ccc(Br)cc2)C1)N1CCCC1 (stereo not given) | / | 3% | 2% | -5% | -1% | -27% | -17% | /
CC(C)OCCCNC(=O)c1ccc(CN2CCc3ccccc3C2)cc1 | / | / | / | 2% | 1% | ? | 5% | /
C[C@H](CO)NC(=O)[C@@H]1C[C@H]1[C@@H](NP(=O)(c1ccccc1)c1ccccc1)c1ccccc1 | ? | 0% | -10% | -9% | 0% | 0% | 3% | -1.0%&-3.9%
CC1CCc2c(C(=O)NCc3ccco3)csc2C1 (stereo not given) | / | -1% | -1%[46.1 µM] | -55% | -6% | 26% | ? | /
NC(=O)c1ccc2c(=O)c(O)c(-c3cc(Cl)c(N)c(Cl)c3)[nH]c2c1 | / | / | / | ? | 3% | -18% | -4% | /
Cc1noc(C)c1S(=O)(=O)N1CCCC(C(=O)NCCC2=CCCCC2)C1 (stereo not given) | -12% | -15% | -14% | 5% | 3% | -20% | 13% | 1.5%
O=C(O)c1ccc(NC(=O)c2ccc(Cl)c(S(=O)(=O)N3CCCCCC3)c2)cc1 | ? | 3%[46.1 µM] | 2%[46.1 µM] | / | / | -9% | / | 0.3%
O=C(c1cn(-c2ccccc2)nc1-c1ccccc1)N1CCOCC1 | 2% | 5% | 9% | -6% | -1% | 9% | -4% | 0.3%
CCc1cccc(NC(=O)CSc2nc3c(c(=O)[nH]2)CCCC3)c1 | 25µM* | -13% | -7% | 8% | -24% | / | / | -1.4%
O=c1/c(=C/c2cccc3ccccc23)sc2ncnn12 | ? | -12% | -26% | ? | 4% | 18% | 16% | -2.5%
O=c1cc(CCl)[nH]c2nc3ccccc3n12 | / | / | / | 0% | -1% | -10% | -2% | /
Fc1ccc(CSc2ncnc3ccccc23)cc1 | / | -20% | ? | -14% | -1% | 3% | -12% | /
CCOc1ccc(C(=O)c2cn(Cc3ccc(Cl)cc3)c3cc(OC)c(OC)cc3c2=O)cc1 | -3% | -27%[46.1 µM] | ? | / | / | ? | / | 4.3%
CCN1CCN(c2nnc(-c3ccc(C)cc3)c3ccccc23)CC1 | / | / | / | 0% | 1% | -8% | -7% | /
COc1ccccc1NC(=O)c1cc(S(=O)(=O)NC2CCCC2)ccc1F | / | / | / | -34% | ? | 17% | 9% | /
O=[N+]([O-])c1cc(S(=O)(=O)N2CCOCC2)ccc1N1CCCC1 | / | ? | 7%[46.1 µM] | / | 1% | 3% | -6% | /
COc1cc(OC)c(NC(=O)c2cc(C(C)=O)n3ccccc23)cc1Cl | 4% | ? | / | / | / | -18% | / | 1.6%
COc1ccc(CC(=O)Nc2nc(-c3ccccc3)c(C(C)=O)s2)cc1OC | / | ? | 11µM* | -21% | -3% | 14% | -6% | /
CCN1C(=O)/C(=C/c2nc3ccccc3c(=O)n2-c2ccccc2)c2ccccc21 | ? | ? | -25% | -6% | 3% | 25µM* | 3% | 1.1%
CCCCc1cc(=O)oc2cc(OCC(=O)N3CCOCC3)ccc12 | / | -1%[46.1 µM] | 12%[46.1 µM] | -8% | 0% | -5% | 5% | /

Single records, from the list above. Order of values: Cruzain inh noDet | Lassa entry inh | Marburg entry inh | NS1 inh | SARS PLpro yeast | 2A StopGo | RE007 growth inh | Cruzain inh Det
COc1cc(OC)c(NC(=O)c2cc(C(C)=O)n3ccccc23)cc1Cl across the screens: 4% | ? | / | / | / | -18% | / | 1.6%
NC(=O)c1ccc2c(=O)c(O)c(-c3cc(Cl)c(N)c(Cl)c3)[nH]c2c1 across the screens: / | / | / | ? | 3% | -18% | -4% | /
